# Bioassay records: PubChem BioAssay, several laboratories
# WNV protease inh: inhibitors of West Nile virus NS2B-NS3 protease; P06935; WNV NS2B-NS3 protease, fluorogenic substrate Ex360/Em465; active compounds read low; z-score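 (tested at a level between 10 and 100 µM)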; 65,000 compounds, 0.18% hits;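 active = z-score at -3 or under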;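 also: score is relative to mean and spread of the compound wells of a plate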
# Target sequence (P06935 1371-1501 limits assumed): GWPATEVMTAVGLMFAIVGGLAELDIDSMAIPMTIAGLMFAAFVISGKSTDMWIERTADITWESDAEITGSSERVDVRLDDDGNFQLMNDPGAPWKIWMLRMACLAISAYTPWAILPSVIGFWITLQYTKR
# Target sequence (P06935 1502-1679 limits assumed): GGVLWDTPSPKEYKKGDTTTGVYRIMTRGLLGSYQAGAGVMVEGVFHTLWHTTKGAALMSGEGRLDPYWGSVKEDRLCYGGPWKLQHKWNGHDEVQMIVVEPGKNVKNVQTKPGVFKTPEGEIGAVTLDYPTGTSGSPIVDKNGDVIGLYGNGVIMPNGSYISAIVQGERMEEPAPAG
# MT1-MMP reporter: MT1-MMP gene expression reporter suppression – cell-based, luciferase reporter, luminescence (AID 618). calls from a first round at 10 µM; hits with a dose series show EC50 in µM. MT1-MMP promoter luciferase reporter cells, luminescence. 87,000 compounds, 0.62% hits;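 active = over half of the reporter light lost at 10 µM or EC50 under 50 µM; inactive = the rest and hits that failed the dose series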;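 also: actives suppress MT1-MMP promoter-driven transcription so potencies describe inhibitors; HT1080 fibrosarcoma cells; overnight exposure; toxic or luciferase-blocking compounds were not removed from the actives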
# Hsc70: Hsc70 inhibitors, probe displacement, primary screen, biochemical, fluorescence polarization (AID 568); Hsc70 fluorescence polarization, probe displacement; higher % means a stronger effect; strong numbers were not always called active; displacement, % at 20 µM, or IC50 in µM where a hit was titrated; 83,000 tested, under 10 active;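 active = displacement above 50% without optical interference and an IC50 on retest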;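 also: ATPase domain with a fluorescein-tagged ATP probe; 0% = vehicle and 100% = excess ADP; read after one hour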
# Numbers without * were called inactive; i = inactive; nt = no result given.
entry	SMILES	MT1-MMP reporter	Hsc70	WNV protease inh
1	Cc1noc(C)c1S(=O)(=O)N1CCCC(C(=O)N2CCC(C)CC2)C1 (centres undefined)	i	-2.0%	-0.74
2	CN(Cc1ccccc1)C(=O)CCn1c(=O)oc2ccccc21	i	0.7%	-0.59
3	Cc1sc(NC(=O)C2CC=CCC2C(=O)O)c(C(=O)OC(C)C)c1C (centres undefined)	i	8.3%	nt
4	N#Cc1c(NC(=O)COC(=O)C2CC3C=CC2C3)oc(-c2ccccc2)c1-c1ccccc1 (centres undefined)	i	-7.5%	0.0048
5	CCSc1cnn(-c2ccccc2)c(=O)c1SCC	i	-4.0%	nt
6	O=C1C(=O)N(CCN2CCOCC2)C(c2ccccn2)/C1=C(/O)c1ccc(F)cc1 (centres undefined)	i	-4.9%	-0.54
7	CCn1c(SCc2nc3ccccc3[nH]2)nnc1-c1ccccc1OC	i	-2.6%	-0.41
8	COc1ccc(S(=O)(=O)Nc2ccc3ccccc3c2)cc1C	i	1.9%	nt
9	N#CC(C(=O)O)=C1CCCC1	i	0.9%	1.7
10	N#Cc1ccc2ccn(CC(=O)NC3CCCCC3)c2c1	i	-5.3%	-0.46
11	c1ccc(CCn2nnnc2C(c2cccs2)N2CCN(Cc3ccc4c(c3)OCO4)CC2)cc1 (centres undefined)	i	1.2%	-0.33
12	COc1ccccc1-c1nnc(SCC(=O)N2CCOCC2)n1-c1ccccc1	i	1.7%	nt
13	Cc1ccnc(N2CCC(C(=O)Nc3ccc4c(c3)OCO4)CC2)n1	i	0.2%	0.1
14	Cc1ccc(NC(=O)C2(S(=O)(=O)c3ccc(C)cc3)CC2)cc1	i	-3.3%	nt
15	COc1ccc(C(=O)n2cnc(N)n2)cc1	i	-0.2%	0.02
16	Cc1cc(C(=O)NN)c2cc(Br)ccc2n1	i	56%	nt
17	COc1ccc(NC(=O)c2cnc3sccn3c2=O)cc1	i	0.0%	-2.2
18	COc1ccc(CNC(=O)Cc2ccc(OC)c(S(=O)(=O)N3CCOCC3)c2)cc1	i	2.8%	-0.9
19	CCOc1ccc2[nH]c(=S)[nH]c2c1	i	-0.2%	nt
20	Clc1ccc(Cn2ncc3c(NCc4ccco4)ncnc32)c(Cl)c1	i	3.6%	1.8

# An excerpt of these results, field by field:
(1) Cc1noc(C)c1S(=O)(=O)N1CCCC(C(=O)N2CCC(C)CC2)C1 (centres undefined)
  MT1-MMP reporter: i
  Hsc70: -2.0%
  WNV protease inh: -0.74
(2) CN(Cc1ccccc1)C(=O)CCn1c(=O)oc2ccccc21
  MT1-MMP reporter: i
  Hsc70: 0.7%
  WNV protease inh: -0.59

# Carrying on:
entry	SMILES	MT1-MMP reporter	Hsc70	WNV protease inh
21	O=C(O)c1n[nH]c2c1CCCC2	i	6.0%	0.07
22	O=C(O)CN=C(NS(=O)(=O)c1ccc(Cl)cc1)c1ccccc1	i	-2.3%	nt
23	CC(C)CCN1C(=O)c2ccc(C(=O)NCc3ccco3)cc2C1=O	i	4.2%	-0.74
24	COc1ccc(Nc2nc(N3CCCCC3)nc(N3CCCCC3)n2)c(OC)c1	i	0.4%	-0.82
25	O=C(OCCN1CCOCC1)c1cccs1	i	3.4%	nt
26	CCC(C)Sc1nc2c(cnn2-c2ccc(C)c(C)c2)c(=O)[nH]1 (centres undefined)	i	-2.2%	-0.19
27	CC(=O)Nc1ccc(NC2(C)C(=O)c3ccccc3C2=O)cc1	i	3.1%	-0.54
28	CCN(CC)S(=O)(=O)c1cccc2cccnc12	i	-2.6%	nt
29	Cc1cc(C)c2c(=O)[nH]c(SCC(=O)NCc3ccccc3)nc2n1	i	-1.2%	nt
30	O=C(Cn1c(CN2CCCCC2)nc2ccccc2c1=O)NC1CCCCC1	i	-2.1%	-1
31	COc1cccc2[nH]c3c(=O)n(CCN(C)C)cnc3c12	i	0.8%	0.28
32	COc1ccc(N2CCN(C(=O)Cc3ccc(-n4c(=O)[nH]c5ccccc5c4=O)cc3)CC2)cc1	i	4.7%	0.46
33	c1ccc(CNC2=NCCCCC2)cc1	i	-1.6%	-1.4
34	Cc1cc(C)nc(Nc2n[nH]c(-c3ccccc3Br)n2)n1	i	-2.5%	-0.53
35	CCOC(=O)N1CCC(NC(=O)CSCc2cnn(-c3ccccc3)c2-n2cccc2)CC1	i	3.8%	0.68
36	O=C(Nc1cccnc1)c1scc2c1OCCO2	i	-8.5%	1.2
37	Cc1cc(NC(=O)CSC2=NCCS2)no1	i	-2.4%	-1.3
38	COc1cccc(C(=O)NC2CCN(C(=O)N3CCCCC3)CC2)c1	i	-13%	0.26
39	Cc1c(C)n(C(=O)CN2CCN(c3ccccc3)CC2)c2ccccc12	i	-1.6%	nt
40	Cc1ccc(N(CC(O)CN2CCOCC2)S(=O)(=O)c2ccc3ccccc3c2)cc1 (centres undefined)	i	-3.8%	-1.4
41	NS(=O)(=O)c1ccc(CNC(=O)NC2(c3ccccc3)CC2)cc1	i	2.6%	0.99
42	CCCOC(=O)c1ccc(Oc2c(-c3ccc(OCC)cc3O)n[nH]c2C)cc1	i	-1.7%	0.19
43	O=C1C(=O)c2ccc(-c3ccccc3)cc2-c2ccccc21	i	-0.8%	nt
44	CCN(CC(=O)NCc1ccc(F)cc1)Cc1nc2cc(Cl)ccc2c(=O)[nH]1	i	-3.3%	nt
45	COc1ccc(NC(=O)C2C3C=CC(C3)C2C(=O)NCc2ccco2)cc1 (centres undefined)	i	-0.5%	-0.79
46	COc1ccc(Cn2nnnc2C(c2cccs2)N2CCCCCC2)cc1 (centres undefined)	i	-2.4%	nt
47	COc1ccc(S(=O)(=O)CCC(=O)O)cc1	i	-4.8%	-1.6
48	Cn1c(CSc2ncccn2)nnc1SCC(=O)N1CCCCC1	i	-1.8%	1.3
49	Cc1c(-c2ccco2)[n+](=O)c2c(n1[O-])CCC2	i	-1.0%	-0.7
50	Cc1ccccc1N1CCN(c2ncnc3c2cnn3Cc2ccc(Cl)cc2)CC1	i	0.5%	-0.46
51	CC(C)c1nc2n[nH]c(N)c2c2c1CCC2	i	-4.1%	-0.35
52	O=C1C(Cl)=C(N2CCOCC2)C(=O)N1CCc1ccccc1	i	3.2%	-1.1
53	Cc1cc(=O)oc2cc(OC(C)C(=O)O)c(Cl)cc12 (centres undefined)	i	-5.5%	-0.43
54	O=C(COc1ccc(S(=O)(=O)NC2CCCCC2)cc1Cl)Nc1ccc2c(c1)OCO2	i	2.4%	nt
55	CCOC(=O)c1[nH]c2ccc(F)cc2c1NC(=O)C1=COCCO1	i	-0.7%	0.38
56	O=C(NCCN1CCN(c2ccccc2)CC1)c1cccn2c(=O)c3cc(Cl)ccc3nc12	i	2.8%	1.2
57	O=C(Cn1c(SCc2ccccc2)nc2ccccc21)N1CCOCC1	i	5.1%	nt
58	CC(C)COC(=O)C1C2C=CC3(CN(C(C)c4ccc(Br)cc4)C(=O)C13)O2 (centres undefined)	i	0.3%	0.78
59	COc1ccc(NC(=O)CC2COc3ccccc3O2)c(OC)c1 (centres undefined)	i	-1.1%	nt
60	O=C(NCc1ccco1)c1cccc(-c2nnc(-c3ccccc3)o2)c1	i	0.9%	0.63
61	COc1cc(CNCCO)ccc1OC1CCCC1	i	-2.2%	nt
62	CCOC(=O)C1C(=O)CC(C)(O)C(C(=O)OCC)C1c1cccs1 (centres undefined)	i	-0.5%	0.09
63	COc1ccc2[nH]c(=O)c(C(c3nnnn3C(C)(C)C)N(Cc3ccco3)CC3CCCO3)cc2c1 (centres undefined)	i	1.6%	1.9
64	CC(=O)Nc1ccc(SCC(=O)c2cc(C)n(Cc3cccs3)c2C)cc1	1.2µM*	5.7%	0.1
65	Cc1c(NC(=O)CC2CC(C)OC2=O)c(=O)n(-c2ccccc2)n1C (centres undefined)	i	-1.7%	-0.17
66	C=CCn1c(COc2ccc(Cl)cc2)nnc1SCC(=O)NCC(=O)OCC	i	2.8%	0.04
67	CN(C(=O)COC(=O)c1nc(-c2ccccc2)n(-c2ccccc2)n1)C1CCS(=O)(=O)C1 (centres undefined)	i	2.2%	1.1
68	Cc1ccc(NC(=O)C(=O)c2c(-c3ccccc3)cc3ccccn23)cc1S(=O)(=O)N1CCOCC1	i	2.2%	nt
69	COC(=O)c1ccccc1NC(=O)NCc1ccccn1	i	-0.4%	-2.1
70	CCOC(=O)N1CCN(C(=O)CSc2nc3c(c(=O)n2-c2ccccc2OC)SCC3)CC1	i	0.3%	-1.3
71	CC(C)(C)NC(=O)c1ccc(NC(=O)C2COc3ccccc3O2)cc1 (centres undefined)	i	0.9%	-0.92
72	O=S(CC(O)COCc1ccc(Cl)cc1)c1ccccn1 (centres undefined)	i	4.2%	-0.14
73	CCOC(=O)c1cccc(NC(=O)CCS(=O)(=O)c2cccc3nsnc23)c1	i	-6.4%	1.1
74	COc1ccccc1CNC(=O)CCS(=O)(=O)c1cccc2nonc12	i	-2.6%	nt
75	COc1cc2[nH]c(=O)n(Cc3ccc(C(=O)NCCCN4CCN(C)CC4)cc3)c(=O)c2cc1OC	i	1.6%	nt
76	O=C(CN1CCN(Cc2ccc3c(c2)OCO3)CC1)N1CCc2[nH]c3ccccc3c2C1	i	0.5%	-1.4
77	Cc1ccc(S(=O)(=O)N(C)CC(=O)N2CCc3ccccc32)cc1	i	-1.3%	-0.61
78	CCOC(=O)c1cnn(-c2nc(CC)nc3sc4c(c23)CCC4)c1N	i	3.4%	1.4
79	CC(C)c1nnc(NC(=O)CCC(=O)N2CCN(C3CCCCC3)CC2)s1	i	-6.3%	-1.3
80	Cc1c(NC(=O)CCN2C(=O)c3ccccc3C2=O)c(=O)n(-c2ccccc2)n1C	i	5.7%	1.4

# Four records drawn at random from those above:
entry	SMILES	MT1-MMP reporter	Hsc70	WNV protease inh
62	CCOC(=O)C1C(=O)CC(C)(O)C(C(=O)OCC)C1c1cccs1 (centres undefined)	i	-0.5%	0.09
80	Cc1c(NC(=O)CCN2C(=O)c3ccccc3C2=O)c(=O)n(-c2ccccc2)n1C	i	5.7%	1.4
74	COc1ccccc1CNC(=O)CCS(=O)(=O)c1cccc2nonc12	i	-2.6%	nt
68	Cc1ccc(NC(=O)C(=O)c2c(-c3ccccc3)cc3ccccn23)cc1S(=O)(=O)N1CCOCC1	i	2.2%	nt

# Next part
entry	SMILES	MT1-MMP reporter	Hsc70	WNV protease inh
81	COc1ccc(OCC(=O)Nc2cccc(C(C)=O)c2)cc1	i	1.3%	1.8
82	O=C1/C(=C/c2cccs2)N=C(c2cccs2)N1Nc1ccccc1	i	30%	nt
83	O=C(NCc1ccccc1)c1cc(=O)[nH]c2ccccc12	i	1.6%	nt
84	CCn1c(NC(=O)Nc2ccccc2OC)nc2ccccc21	i	-2.0%	-1.1
85	CCc1cccc(CC)c1N(COC)C(=O)Cn1nnc2ccccc21	i	-1.8%	0.82
86	CCCCn1c(=O)[nH]c(=O)c2c1nc(-c1ccncc1)n2CCOC	i	3.9%	-0.11
87	CCOc1ccc(S(=O)(=O)NCCC(=O)OC(C)C(=O)N2CCc3ccccc32)cc1 (centres undefined)	i	3.7%	-0.9
88	CC1(C)CC(=O)C2=C(C1)OC(N)=C(C#N)C21CCN(C(=O)OCc2ccccc2)CC1	i	-7.4%	-1.1
89	CCn1c2ccccc2c2cc(C3C(C#N)=C(C)NC(C)=C3C#N)ccc21	i	-1.9%	1.6
90	CCOc1ccccc1N1CCN(S(=O)(=O)c2cccc3nsnc23)CC1	i	1.7%	-0.81
91	Cc1nc2ccc(-n3ccc(=O)cc3)cc2s1	i	-9.2%	-0.3
92	Cc1ccc(S(=O)(=O)N(C)CCCC(=O)NCc2ccc3c(c2)OCO3)cc1	i	4.4%	-1.1
93	CS(=O)(=O)N(Cc1ccco1)CC(O)Cn1c2ccccc2c2ccccc21 (centres undefined)	i	8.0%	0.56
94	COc1ccc(NC(=O)c2oc3ccccc3c2C)c(OC)c1	i	-1.6%	-0.04
95	CCOC(=O)C1(CC)NC(c2ccco2)C2C(=O)N(CC)C(=O)C21 (centres undefined)	i	-0.4%	nt
96	CN(C)CCCN1C(=O)C(=O)/C(=C(/O)c2ccncc2)C1c1cccc(Br)c1 (centres undefined)	i	3.2%	0.77
97	O=C(Cn1cccc1C(=O)c1ccccc1)NCc1cccs1	i	2.0%	0.23
98	CCOC(=O)c1nnn(-c2nonc2N)c1CN(CC)c1ccccc1	i	0.8%	nt
99	CNCCc1ccccn1	i	-1.9%	0.07
100	C=CCN1CC(c2nc3ccccc3n2Cc2ccccc2)CC1=O (centres undefined)	i	2.1%	-1
101	O=C(Nc1cccc(Cl)c1)Nc1nccs1	i	0.3%	-0.45
102	CCCCCCn1c(CN2CCN(CCO)CC2)nc2c1c(=O)n(C)c(=O)n2C	i	3.2%	-0.57
103	COC(=O)c1cccc(NC(=O)CN2CCC(NC(=O)c3cc(OC)c(OC)c(OC)c3)CC2)c1	i	-3.1%	-0.72
104	O=C(Cn1nc(C(F)(F)F)c2c1CCCC2)NC1CCCC1	i	4.1%	-0.62
105	Cc1ccc(CS(=O)(=O)CCC(=O)NCCCN2CCCC2)cc1	i	4.1%	-1.3
106	NC(=O)c1ccsc1NC(=O)C1CCCCC1	i	2.8%	-0.43
107	COC(=O)CCC(=O)Nc1ccc(Br)cc1	i	2.9%	-0.42
108	COc1ccc(NC(=O)c2cc(C)on2)cc1OC	i	0.5%	-0.1
109	CCn1c(SCC(=O)NCc2ccco2)nnc1C(C)C	i	1.6%	-0.14
110	COc1cc(NC(=O)c2ccccc2Cl)ccc1NC(=O)c1ccco1	i	2.7%	nt
111	CN1C(=O)OC(C)(CCc2ccccc2)C1(C)O (centres undefined)	i	-1.0%	1.6
112	Cc1ccc(N2C(=O)CC(Nc3ccccc3)C2=O)cc1 (centres undefined)	i	1.7%	nt
